Assay outcomes (PubChem BioAssay)
Mtb MenB inh – blocks the Mycobacterium tuberculosis MenB enzyme; P9WNP5; MenB enzyme assay, absorbance read-out; some hits fall short of the stated cut; inhibition, %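 (about 12 µg/mL by stock and volumes)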; 100,000 tested, 0.43% active;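 active = mean of two replicates above 30%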;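 also: 0% = no compound and 100% = wells with inactive enzyme; the first replicate is given; strong numbers were not always called active; inactives centre near -10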
PV pol inh – poliovirus RNA polymerase inhibition | P03300 | poliovirus polymerase elongation, fluorescence polarization; active compounds read low | % elongation, % (compound at 16.7 µg/mL) | 150,000 tested, 0.66% active; in the data active = % elongation below about 90%; also: some results filed as inactive read as strong as hits
Target sequence (P03300 1749-2209 limits assumed): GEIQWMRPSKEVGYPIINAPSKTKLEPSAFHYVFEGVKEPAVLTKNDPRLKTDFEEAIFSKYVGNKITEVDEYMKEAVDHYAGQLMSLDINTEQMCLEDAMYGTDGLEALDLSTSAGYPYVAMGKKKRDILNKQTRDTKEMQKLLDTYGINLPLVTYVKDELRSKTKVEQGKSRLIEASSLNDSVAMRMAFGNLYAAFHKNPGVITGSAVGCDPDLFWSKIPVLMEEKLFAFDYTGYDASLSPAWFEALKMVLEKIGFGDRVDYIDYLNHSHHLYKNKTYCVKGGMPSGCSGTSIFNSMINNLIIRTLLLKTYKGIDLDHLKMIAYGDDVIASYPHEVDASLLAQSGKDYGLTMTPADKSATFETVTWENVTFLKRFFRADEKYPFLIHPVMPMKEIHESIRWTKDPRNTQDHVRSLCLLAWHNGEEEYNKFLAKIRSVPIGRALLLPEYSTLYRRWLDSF
MbtI inh – blocks the Mycobacterium tuberculosis siderophore enzyme MbtI | P9WFX0 | purified MbtI enzyme, fluorescence intensity read-out | 100,000 tested, 0.89% active | inhibition, %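 (about 17 µg/mL by stock and volumes)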;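 active = above 50% in both replicates, above 80% if mildly self-fluorescent; inactive = the rest, strongly fluorescent compounds included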;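 also: 0% = mean of negative and 100% = mean of positive controls; one replicate is shown; some compounds called inactive have numbers as strong as hits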
Target sequence (P9WFX0 whole entry, looked up): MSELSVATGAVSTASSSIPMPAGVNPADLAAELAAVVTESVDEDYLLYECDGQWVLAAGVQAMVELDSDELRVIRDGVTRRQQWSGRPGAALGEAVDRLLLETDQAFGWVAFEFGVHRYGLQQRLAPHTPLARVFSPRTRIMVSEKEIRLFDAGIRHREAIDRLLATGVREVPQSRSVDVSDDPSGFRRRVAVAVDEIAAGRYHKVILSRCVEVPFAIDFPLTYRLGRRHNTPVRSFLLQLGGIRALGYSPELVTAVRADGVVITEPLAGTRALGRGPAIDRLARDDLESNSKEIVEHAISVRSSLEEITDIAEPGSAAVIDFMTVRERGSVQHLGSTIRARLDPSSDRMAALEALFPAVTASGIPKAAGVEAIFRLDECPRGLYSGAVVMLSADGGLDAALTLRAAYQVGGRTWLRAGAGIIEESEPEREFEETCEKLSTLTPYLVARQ
PV pol inh intensity – further read-out of PV pol inh, marked with its call; % elongation; measured here: total intensity read-out; formula for this scale not given here;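 total fluorescence in place of polarization; lower means less elongation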
Starred values were filed as active, the others as inactive; i = inactive; · = not tested or not shown; & = joins results of further samples.

Compound	Mtb MenB inh	PV pol inh	PV pol inh intensity	MbtI inh
COCC(=O)N(Cc1cc2cccc(C)c2[nH]c1=O)c1ccccc1	-13	103	106	·
CC1CCc2c(sc(NC(=O)COC(=O)c3ccco3)c2C#N)C1 (stereo not given)	-29	102	109	6
CCn1c2ccc(C)cc2c2nc(C)sc21	12	99	103	80
CC(=O)NC(=S)Nc1cccc(C#N)c1	-2	98	102	15
CCCCN(C(C)C)S(=O)(=O)c1ccc(C)cc1	-19	102	93	-3
O=C(/C=C/c1ccc2c(c1)OCO2)Nc1ccc(S(=O)(=O)N2CCCCC2c2cccnc2)cc1 (stereo not given)	-23	100	99	6
CN(CC(=O)Nc1sc2c(c1C#N)CCC2)Cc1nc2ccccc2c(=O)[nH]1	-33	59	225	-7
CCN1CCSC1=NCc1cccs1	-11	99	99	6
COc1c2c(c(CSc3nnnn3-c3ccccc3)c(OC)c1OC)C(=O)OC2	-1	98	101	·
Oc1ccccc1C=Nc1ccccc1C(F)(F)F	5	99	106	-7
O=C1CCCN1C(=O)CSc1nnc2c(Cl)cc(Cl)cn12	-9	100	104	i
CCOC(=O)n1ncc(C#N)c1N	-2	98	96	·
CCCn1c(=O)n(C)c(=O)c2c(SCc3nc(-c4cccc(Cl)c4)no3)nc(CC(C)C)nc21	-8	103	111	-10
N#CCCOC1(C#CCN2CCCC2)CCCCC1	-4	100	101	6
O=C(CNc1ccc(F)cc1)N/N=C1\CCc2ccccc21	15	103	99	7
CCc1ccc2c(c1)c1n[nH]c(=S)nc1n2C	-60	102	102	15
O=C(O)c1ccc(-c2ccc(F)cc2)s1	-6	99	104	-98
O=C(Cn1ncc2c1-c1ccccc1OC2)N1CCCc2ccccc21	-2	103	104	-1
CCn1cc(CN(C)C(=S)Nc2sc3c(c2C(=O)OC)CCC(C)C3)c(C)n1 (stereo not given)	-23	101	100	1
O=CN1CCN(C(=O)Cc2ccc(Cl)cc2)CC1	-9	103	109	·
O=C(C1CCC1)N1CCN(c2ccnc3cc(Cl)ccc23)CC1	6	103	110	-12
COc1ccc(N2CCN(C(=O)CCN3C(=S)NC(C)(C)CC3C)CC2)cc1 (stereo not given)	5	99	103	1
CCOC(=O)C1=C(C)N(C)C2(C)CC1c1ccccc1O2 (stereo not given)	-9	100	107	-5
C=CCN(c1nccs1)S(=O)(=O)c1ccc(C)cc1	1	102	106	0
Fc1c(F)c2c(c(F)c1Cl)Oc1ccccc1O2	-17	104	103	0
N#C/C(=C\C1CC=CCC1)c1nc2ccccc2[nH]1 (stereo not given)	-6	100	102	88
CC1(C(=O)NCc2ccc3c(c2)OCO3)COC(c2ccccc2)OC1 (stereo not given)	-6	99	100	-3
CC1(C)CC(=O)C2=C(C1)NC(SCC(=O)Nc1ccccc1)=C(C#N)C2c1ccco1 (stereo not given)	-1	101	102	-7
CC1CC1c1ccco1 (stereo not given)	-25	107	112	-1
CCOC(=O)N/N=C/c1ccc2c(c1)OCCO2	-20	100	105	-8

The final 2 records of the section above are carried over, then new ones follow.
Compound	Mtb MenB inh	PV pol inh	PV pol inh intensity	MbtI inh
CC1CC1c1ccco1 (stereo not given)	-25	107	112	-1
CCOC(=O)N/N=C/c1ccc2c(c1)OCCO2	-20	100	105	-8
COCCN(C(=O)Nc1ccc(Cl)c(Cl)c1)C1CCN(C(C)C)CC1	5	103	100	-3
CCCC(=O)N1CCC(c2ccc(OC)cc2)=N1	-14	104	105	-45
COc1ccc(S(=O)(=O)c2cc(NS(=O)(=O)c3ccccc3)cc(C(C)C)c2O)cc1	-39	112	109	·
COc1ccc(/C=C(/NC(=O)c2ccco2)C(=O)N2CCCCCC2)cc1OC	-2	101	103	17
CCN(CC(=O)NC1CCS(=O)(=O)C1)C(=O)c1cc(OC)c(OC)c(OC)c1 (stereo not given)	-8	106	105	-15
CC(=O)Nc1ccc2oc(C)nc2c1	-6	102	100	3
COc1cc(CN(C(=S)NCC(=O)O)C2CCCC2)cc(OC)c1OC	-5	101	100	-5
COc1ccc(C2=NCC(CSc3nnc(C(C)N(C)C)n3-c3ccccc3)S2)cc1 (stereo not given)	-25	109	107	-13
CCn1c(=O)c2ccccc2n(CC(=O)Nc2ccc3c(c2)OCO3)c1=O	-59	104	102	-8
O=C(CC1Nc2ccccc2NC1=O)Nc1cccc2ccccc12 (stereo not given)	8	101	101	3
CCOC(=O)c1c(N(C(C)=O)C(C)=O)n(CCCOC)c2nc3ccccc3nc12	-10	103	111	12
CCc1ccc(OCC(O)CN2CCN(CC)CC2)cc1 (stereo not given)	14	95	107	10
Cc1cccc2cc(C(c3nnnn3CCc3ccccc3)N3CCN(c4nc5ccccc5s4)CC3)c(=O)[nH]c12 (stereo not given)	-29	103	103	-16
CCN1CCCC1CNCc1ccccn1 (stereo not given)	-79	102	102	2
COc1cc(C(=O)OCc2nnc(-c3ccccc3)o2)ccc1OCC(=O)Nc1ccc(F)cc1	-4	101	104	11
CC1=NNC(=O)C1CCc1ccncc1 (stereo not given)	21	102	108	-6
Cc1noc(C)c1C(=O)O/N=C(/c1cccs1)C(C)(C)C	0	102	96	2
Cc1cccc(-c2oc(C)c(C)[n+]2[O-])c1	-17	98	101	24
O=S(=O)(c1ccccc1)c1cnc2cc3c(cc2c1N1CCCCC1)OCCO3	-14	105	107	-7
O=C1C(c2sc(=S)n(-c3ccccc3)c2O)=Nc2ccccc21	-8	102	103	2
Cc1nc2cc(CO)ccc2s1	0	105	108	-8
C=CCN1C(=O)C(Cc2cccc(Cl)c2)SC1=Nc1ccc(C(=O)O)cc1 (stereo not given)	-9	103	108	-5
CC(C)CCNc1ncnc2c1sc1nc3c(cc12)COC(C)(C)C3	-7	101	103	10
COc1ccc(CC(=O)NN2CCN(c3ccccc3)CC2)cc1	-16	102	107	·
Cc1cccc(NCN2C(=O)C3C4C=CC(C4)C3C2=O)c1 (stereo not given)	-17	103	99	-8
Cc1ccccc1C(=O)Nc1ccc2c(c1)n(C)c(=O)c(=O)n2C	-7	100	101	-2
CCNc1nc(NCC)n2c(SCC(=O)/C=C3/N(C)c4ccccc4C3(C)C)nnc2n1	-82	102	95	-3
C/C=C/C(=O)Nc1ccc(-c2nc3ccc(C)cc3s2)cc1	·	101	107	-97
CN(C(=O)CSc1ccccc1C(=O)O)C1CCCCC1	·	101	106	-4
CCC(=O)N1CCc2cc(Br)cc(S(=O)(=O)CCC(=O)NCC3CCCO3)c21 (stereo not given)	-17	101	104	-3
CC(NS(=O)(=O)N(C)C)c1ccccc1 (stereo not given)	-4	106	107	·
COCc1[nH]c(=S)[nH]c(=O)c1C	-19	103	97	21
CCC(=O)N1CCN=C1SC	-23	103	104	6
O=C(OCC(=O)c1cc(Cl)ccc1Cl)c1cccc(O)c1	·	103	109	-17
Cc1ccccc1C(=O)NC1CCN(CC(=O)NC2CCCCC2)CC1	-25	101	101	3
CS(=O)(=O)N1CCN=C1SCc1ccccc1	-4	103	102	-8
COC(=O)c1c(-c2cccs2)csc1NC(=O)CN1CCOCC1	-19	99	97	-22
CC(C)c1cccc(C(C)C)c1NC(=O)c1ccc2ncccc2c1	·	103	99	-6
CCc1cccc(NC(=O)C2CCCN(S(=O)(=O)c3cccnc3)C2)c1 (stereo not given)	-15	102	98	5
CC(=O)N/N=C/c1c(C)[nH]n(-c2ccccc2)c1=O	-15	101	100	13
CC(C)(C)c1ccc(C(=O)Nn2cnc3c(cnn3C(C)(C)C)c2=O)cc1	-28	104	104	-13
O=C(NC1CCN(Cc2cccc3ccccc23)CC1)c1ccccc1	-11	102	100	-12
Cc1ccc(OC(=O)c2ccc3snnc3c2)cc1	-39	102	103	7
O=C(CSc1nnc(CN2CCCCCC2=O)n1-c1ccccn1)c1ccccc1	-30	106	113	-2
Cc1cc(S(=O)(=O)NCC(C)C)ccc1OCC(N)=O	5	100	102	-10
CCCCCOc1ccc(C(=O)/C=C/C(=O)O)cc1	18	96	89	63*
Cc1cccc(-c2noc(CN(C(=O)CCCN3C(=O)c4ccccc4C3=O)C3CCCCC3)n2)c1	-17	105	101	-11
Cc1cc(C)c2c(N)c(C(=O)Nc3ccccc3)sc2n1	-35	103	106	107
Cc1nc(C)c(-c2csc(NCc3ccccc3)n2)s1	-43	101	103	35
CCN1CCCC1CNC(=O)Nc1c[nH]c2ccc(C)cc2c1=O (stereo not given)	-5	102	102	89
Cc1cc(N)nc2nc(C(F)(F)F)nn12	·	99	95	-12
CC12CC3CC(C1)CC(NC(=O)c1ccc(Cl)cc1Cl)(C3)C2	-4	105	106	65
Cc1cc(OCC(=O)N2CCOCC2)ccc1NC(=O)C1CCCCC1	-9	100	103	-8
NNC(=O)c1c(NC(=O)c2ccccc2)sc2c1CCC2	-13	100	103	-18
CCc1ccc(NC(=O)C23CC4CC(CC(C4)C2)C3)cc1	-27	100	104	·
CCOC(=O)c1c(NC(=O)CN(CC)CC)sc2c1CCC/C2=N\O	-18	104	102	-5
CCCn1c(=O)c(C#N)cn(-c2ccccc2C)c1=O	-10	100	97	-6
Cc1ccc(N2CC(C(=O)OCC(=O)c3ccc[nH]3)CC2=O)cc1 (stereo not given)	-2	107	110	6
Cc1csc(=O)n1CCSc1nnc(-c2cccs2)n1-c1ccccc1	-1	103	103	1
CC(=O)N1c2ccccc2NC2=C(C(=O)CCC2)C1c1ccc(Cl)cc1 (stereo not given)	-12	101	103	4

Individual results from the entries so far:
Cc1csc(=O)n1CCSc1nnc(-c2cccs2)n1-c1ccccc1 in PV pol inh has 103
CCCCCOc1ccc(C(=O)/C=C/C(=O)O)cc1 in Mtb MenB inh has 18

Filtered by structure, those above containing a CF3 group
Compound	Mtb MenB inh	PV pol inh	PV pol inh intensity	MbtI inh
Oc1ccccc1C=Nc1ccccc1C(F)(F)F	5	99	106	-7
Cc1cc(N)nc2nc(C(F)(F)F)nn12	·	99	95	-12

Further entries.
Compound	Mtb MenB inh	PV pol inh	PV pol inh intensity	MbtI inh
N#CC(C#N)=NNc1ccc(OC(F)(F)F)cc1	-22	99&100	104&101	-4
COc1ccc(OC)c(S(=O)(=O)c2c(OC)ccc(OC)c2C(=O)O)c1	0	106	107	·
CC(C)CNC(=O)c1ccc(CN2CCOCC2)cc1	11	102	101	-9
Cc1c(C(=O)NC(=S)Nc2ccc(N3CCCCC3)c(Cl)c2)oc2ccccc12	12	103	103	-2
Nc1nc2c(c(Nc3ccccc3)n1)C(=O)CC(c1ccccc1)C2 (stereo not given)	-31	104	96	-5
COc1cc(-c2nnc(SCC(=O)NC(=O)c3ccc(C(C)(C)C)cc3)o2)cc(OC)c1OC	-36	98	97	10
CCOc1ccc2nc(Nc3ncc4c(n3)CCCC4=O)nc(C)c2c1	-11	105	115	·
O=S(=O)(c1ccc(Nc2nc3ccccc3n3nnnc23)cc1)N1CCOCC1	-11	103	102	118
Cc1ccc(N2CCN(C(=O)c3ccccc3)CC2)c(C)c1	-33	102	102	-6
Fc1ccc(N2CCN(C3C4CC5CC(C4)CC3C5)CC2)cc1 (stereo not given)	-20	102	102	-9
COc1ccc(C(=O)NCc2nnc(SCC(=O)c3ccccc3)n2C)cc1	-1	100	102	-9
O=c1c(-c2ccc3c(c2)OCCO3)coc2cc(O)cc(O)c12	-31	102	100	6
CCOc1cc(C2c3c(oc4ccc(F)cc4c3=O)C(=O)N2CCc2ccc(OC)cc2)ccc1O (stereo not given)	-23	103	98	3
CC(c1nnc(SCc2ccc(C#N)cc2)n1-c1ccc(Cl)cc1)N1CCCCC1 (stereo not given)	-25	106	101	-12
Cc1ccc(C2=NC(=O)/C(=C/c3cc(O)c(O)c(Br)c3)S2)cc1	-42	95	103	52
